Assay outcomes: PubChem, National Center for Advancing Translational Sciences (NCATS)
Sfp PPTase inh = qHTS Assay for Inhibitors of Bacillus subtilis Sfp phosphopantetheinyl transferase (PPTase); 4'-phosphopantetheinyl transferase ffp (Bacillus subtilis), Q9F4F7; Biochemical Sfp PPTase activity, qHTS; Potency, µM, for inactives: max response, negative = inhibition, most hits filed as inhibitors; 3.5% of 310,000 active; active = well fitted inhibition curve with a large enough effect; inconclusive = small, poorly fitted or top-dose-only effect, or another doubt; inactive = no such curve, though single readings can be large or run the other way;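 note: the enzyme is Sfp with the accession as filed and its product quenches rhodamine fluorescence; potency is the fitted concentration of half-maximal effect; 0% = enzyme reaction without inhibitor and -100% = no enzyme wells; top concentration of the series not given in the record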
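Buffer: 50 mM Hepes-Na pH 7.6, 10 mM MgCl2, 0.01% Nonidet P-40, 0.01% BSA. Enzyme 15 nM, pre-exposed to compound 15 min; substrates then added and fluorescence change tracked over 30 min.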
Six1-Eya2 blk = qHTS Assay for Inhibitors of the Six1/Eya2 Interaction | activity change, % (test concentration not listed) | AlphaScreen GST-Six1/His-Eya2 binding, biochemical; hits give low values; control for the full effect not named in the record | 0.56% of 360,000 active | AID 651725, 2012 | Homeobox protein SIX1 (Homo sapiens) + Protein phosphatase EYA2 (Homo sapiens), …; in the data active = activity change below about -65%; inconclusive = about -30% to -65%; inactive = above about -30%; note: % is set by controls: 0 for no effect and ±100 for the full control effect; compound concentration not given in the record
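GST-Six1 + His-Eya2 (5X stock: 250/500 nM); Tris pH 8.0, 300 mM NaCl, 0.05% BSA, 0.02% Tween 20; GSH donor/Ni acceptor beads; 1 h 37 °C dark; AlphaScreen readout.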
D2 potentiator = Beta-Arrestin HTS for Positive Allosteric Modulators of the Human D2 Dopamine Receptor: Potentiators; potentiation, % (test concentration not listed); 0.23% of 360,000 active; AID 624464, 2012; DiscoveRx D2 beta-arrestin cells, luminescence, 90 min; 100% = 57 uM dopamine signal; D(2) dopamine receptor (Homo sapiens), P14416; active = potentiation of 50% or more; inconclusive = 30% to 50%; inactive = 30% or less;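 note: compound concentration not given in the record; tested on top of an EC20 dose of dopamine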
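PathHunter D2 cells, attached overnight at 37 deg C, received compound in DMSO plus dopamine at EC20 (50 nM final) for 90 min at 37 deg C. Beta-arrestin recruitment was read as luminescence after 1 h with detection reagent at ambient temperature.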
D2 agonist = Beta-Arrestin HTS for Positive Allosteric Modulators of the Human D2 Dopamine Receptor: Agonists | D(2) dopamine receptor (Homo sapiens), P14416 | DiscoveRx PathHunter D2 beta-arrestin, luminescence, 90 min; 100% = 57 uM dopamine signal | activation, % (concentration not given with the values) | 0.084% of 360,000 active; in the data active = activation above about 40%; inconclusive = about 15% to 40%; inactive = below about 15%; note: compound concentration not given in the record; the text of the record calls up to 30% inactive
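Agonist mode: compounds alone added to overnight-plated D2 PathHunter cells for 90 min at 37 C, with 57 uM final dopamine (EC100) defining full response. Beta-arrestin recruitment detected by chemiluminescent reagent, read after 1 h at ambient temperature.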
TRPV1 potentiator = HTS Assay for Compounds that Act as Potentiators of the Vanilloid Receptor 1. Transient receptor potential cation channel subfamily V member 1 (Homo sapiens), Q8NER1. TRPV1-expressing cells, Fluo-8 calcium influx, capsaicin EC20 potentiation; host cell line not named in the record; control for the full effect not named in the record. potentiation, % at 8.33 µM. 0.02% of 320,000 active. AID 540277, 2011; active means potentiation above 80%; inconclusive means 30% to 80%; inactive means below 30%; note: 0% is about no effect
Target sequence (Q8NER1 whole entry, looked up): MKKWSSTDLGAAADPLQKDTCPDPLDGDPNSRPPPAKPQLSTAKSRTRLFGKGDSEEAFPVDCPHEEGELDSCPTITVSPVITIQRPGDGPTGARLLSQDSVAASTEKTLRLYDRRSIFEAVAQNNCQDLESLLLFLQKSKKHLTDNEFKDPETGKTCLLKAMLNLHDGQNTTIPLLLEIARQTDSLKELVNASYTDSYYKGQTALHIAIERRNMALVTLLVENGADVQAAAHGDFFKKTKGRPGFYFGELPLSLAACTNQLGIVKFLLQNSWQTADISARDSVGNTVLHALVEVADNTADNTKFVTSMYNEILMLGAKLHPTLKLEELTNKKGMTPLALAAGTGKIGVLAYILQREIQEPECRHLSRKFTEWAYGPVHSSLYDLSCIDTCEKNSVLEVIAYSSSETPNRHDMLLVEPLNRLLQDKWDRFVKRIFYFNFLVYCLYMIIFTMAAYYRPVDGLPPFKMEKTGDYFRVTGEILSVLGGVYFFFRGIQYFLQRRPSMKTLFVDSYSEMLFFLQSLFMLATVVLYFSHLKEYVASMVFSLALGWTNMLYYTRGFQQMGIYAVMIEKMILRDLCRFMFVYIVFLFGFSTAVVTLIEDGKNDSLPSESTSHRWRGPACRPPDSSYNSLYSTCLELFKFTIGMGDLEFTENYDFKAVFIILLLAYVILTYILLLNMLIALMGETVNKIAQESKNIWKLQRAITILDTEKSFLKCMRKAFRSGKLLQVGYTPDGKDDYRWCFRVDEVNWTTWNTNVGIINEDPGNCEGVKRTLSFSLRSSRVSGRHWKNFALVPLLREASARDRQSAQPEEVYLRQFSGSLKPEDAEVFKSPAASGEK
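TRPV1-expressing cells were cultured overnight at 35.5C and loaded with Fluo-8 calcium dye for 40 to 90 min at room temperature. After a 10 s baseline, compound was added and calcium influx was read kinetically for 3 min (ex 480/em 520 nm).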
CtBP-E1A blk = qHTS Assay for Inhibitors of the CtBP/E1A Interaction; CtBP / adenovirus E1A interaction (AlphaScreen); AlphaScreen GST-E1A/His-CtBP binding, 1536-well; hits give low values; control for the full effect not named in the record; activity change, % (no concentration beside the values); 0.49% of 340,000 active; in the data active means activity change below about -65%; inconclusive means about -30% to -65%; inactive means above about -30%; note: % is set by controls: 0 for no effect and ±100 for the full control effect; compound concentration not given in the record
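GST-E1A and His-tagged CtBP (125 nM each as 5X stock) were preincubated with pin-transferred compound for 2 h at 37 °C in the dark, then glutathione donor and nickel acceptor beads were added for 1 h before AlphaScreen reading.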
PINK1 expr mod = A Quantitative High throughput Screen to Identify Chemical Modulators of PINK1 Expression; Potency, µM (doses to about 76.6 µM), inactives show at the highest dose activation (PINK1 increase), most hits filed as activators; PINK1 immunofluorescence, high-content cytometry, 24 h; 0.2% of 410,000 active; AID 624263, 2012; active = well fitted activation curve with a large enough effect; inconclusive = small, poorly fitted or top-dose-only effect; inactive = flat fitted curve, though single readings scatter; cell line not stated here;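 note: potency is the fitted concentration of half-maximal effect; % of control where 0% means no effect; nearly all actives have a fitted effect of over 65% in size; a mitochondrial uncoupler was the plate control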
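A stable cell line was treated with compounds at 5 concentrations for 24 hours, with CCCP as control. PINK1 levels and mitochondrial localization were measured by immunofluorescence with mitochondrial, cell and nuclear markers after fixation, read by laser-scanning cytometry.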
The depositor's hits bear a star; ? = inconclusive; . = not tested or not shown; & = joins results of further samples; [ ] = remark or other dose.

Every second line gives: Sfp PPTase inh, Six1-Eya2 blk, D2 potentiator, D2 agonist, TRPV1 potentiator, CtBP-E1A blk, PINK1 expr mod
> O=c1oc2ccccc2c(NCCc2ccccc2)c1[N+](=O)[O-]
    16%, -17, -14, -1.1, -9, 9, 3.0%
> CCCCNC(=O)Nc1cnn(CC)c1C(N)=O
    21%, 0, -9, -0.7, -7, 2, 0.3%
> O=C(O)CCCC(=O)N1CCN(c2nc(-c3ccccc3Cl)c3cc(Br)ccc3n2)CC1
    0%, -2, -9, -0.1, -16, ., 0.7%
> Cc1cccc(OCC(=O)N/N=C/c2sc(=O)n(Cc3cccc(C(=O)O)c3)c2Cl)c1
    -1%, -12, 0, -2.9, ., -18, 4.0%
> O=C(COc1coc(CN2CCN(c3ccccc3F)CC2)cc1=O)NCC1CCCO1 (stereo not drawn)
    ., 3, 0, -2.7, 11, 6, -0.5%
> O=S(=O)(c1ccccc1)N1CCCC1c1cccs1 (stereo not drawn)
    15%, 3, -10, 0.9, 3, 11, 0.0%
> Cn1c(-c2ccc(C(C)(C)C)cc2)n[nH]c1=S
    -8%, 0, -18, -4.2, -27, -1, -1.8%
> COC(=O)N/N=C\c1cc(Br)ccc1OCc1ccccc1
    10%, -1, -23, -2.5, 5, -8, 0.4%
> Cn1c(=O)oc2cc(S(=O)(=O)Nc3cccc(C(=O)O)c3)ccc21
    -4%, 2, -3, -0.5, -8, 3, 4.5%[38.3 µM]
> CC1=C(C(=O)OC2CCCCC2)C(c2ccco2)n2ncnc2N1 (stereo not drawn)
    6%, 3, 1, 0.9, ., 3, 5.7%
> C/C(CC(=O)NCCc1ccccc1)=N\NC(=O)COc1ccc(Br)cc1
    7%, 9, -8, -8.6, -3, 17, 1.0%
> CCOC(=O)CSc1ccc(-c2nc3cc(C)c(C)cc3[nH]2)cn1
    -15%, -17, -5, -0.4, -17, 1, 7.3%
> Cc1ccc(C)c(N(C(=O)Cn2nnc(-c3cccs3)n2)C(C(=O)NC2CC2)c2ccc(C)o2)c1 (stereo not drawn)
    17%, 0, -15, -0.3, -9, 9, .
> Cn1ncc(Br)c1C(=O)NC(=S)N1CCN(c2ccccn2)CC1
    -20%, -1, -1, -3.1, 7, 12, 2.9%
> Cc1cc(OCc2nc(-c3ccncc3)no2)cc(C)c1Cl
    18%, -2, -1, 8.9, -1, 0, 2.1%
> C=CCNc1nc(N)c(C(=C(C#N)C#N)c2ccccc2)s1
    13%, ?, -9, -0.1, 7, -12, 0.9%
> CN(C)c1nc(Oc2ccc(/C=N/O)cc2)nc(N(C)C)n1
    5%, 4, 20, -1.9, -6, -2, 2.0%
> O=C(CN1C(=O)c2ccccc2C1=O)NCc1ccc(F)cc1
    12%, -3, -2, 1.1, -1, 0, -0.2%
> C=C[C@@]1(C)CC(=O)[C@]2(O)[C@@]3(C)[C@@H](O)CCC(C)(C)[C@@H]3[C@H](O)[C@H](OC(C)=O)[C@@]2(C)O1
    -1%, -5, 21, 9.7, ., 8, 0.4%
> O=S1(=O)CCN(Cc2ccncc2)CC1
    ., 2, -1, -1.3, ., 8, 1.9%
> CC1CCCCN1S(=O)(=O)c1ccc(S(=O)(=O)N2CCN(c3ccccc3)CC2)cc1 (stereo not drawn)
    21%, -1, -5, -3.9, -1, 0, 14%
> O=C(Cn1ccc(C(F)(F)F)n1)N/N=C/c1cccs1
    5%, -1, 3, -7.3, -1, 7, 2.1%
> COc1cc(-c2nnc(SCc3c(F)cccc3Cl)o2)cc(OC)c1OC
    -27%, 15, -6, -5.2, -9, 0, 0.0%
> Cc1cc(NC(=O)c2cccnc2)ccc1NC(=O)c1ccco1
    3%, 0, -2, -0.9, -6, 2, 0.3%
> O=C(Nc1ccc(F)cc1)c1ccccc1NC(=O)C1CC=CCC1C(=O)O (stereo not drawn)
    6%, 3, 7, -0.2, 3, 3, 1.2%
> Cc1ccc(C)c(OCCC(=O)NNC(=O)c2ccccc2)c1
    ., 1, -8, 0.6, -1, -4, -0.1%
> C=CCNC(=S)Nc1ccc(C(N)=O)cc1
    -2%, -3, -2, -6.0, -9, 0, 3.8%
> COc1ccc([N+](=O)[O-])cc1NC(=O)C1CCCO1 (stereo not drawn)
    -8%, 9, -6, -1.6, 10, 5, -1.4%
> O=C1C(=O)N(CCN2CCOCC2)C(c2ccc(F)cc2)/C1=C(/O)c1ccc(S(=O)(=O)N2CCOCC2)cc1 (stereo not drawn)
    9%, 17, 1, 0.2, 2, 0, -0.1%
> CCCCNC(=O)C1(C)CCCCN1Cc1ccc(OCc2ccccc2)cc1 (stereo not drawn)
    ., 38, -8, -4.9, ., 18, ?
> Cc1ccc2ccccc2c1COC(=O)c1nonc1N
    4%, 3, -9, -3.0, 15, 5, 1.8%[38.3 µM]
> Cc1nn(-c2ccc(N3CCOCC3)nn2)c(C)c1CCC(=O)NCc1ccc(F)cc1
    2%, 0, -2, -0.1, -14, 0, -1.0%&2.1%
> CS(=O)(=O)c1nc(S(=O)(=O)c2ccc(Cl)cc2)c(N2CCC(C(N)=O)CC2)s1
    15%, -3, -6, -3.3, -21, 1, -0.7%
> CC1(C)CC2CC(C)(CN2C(=O)COc2cccc3ccccc23)C1 (stereo not drawn)
    -6%, -5, 1, -1.7, 2, 1, -0.7%
> Cn1cccc1C(C(=O)NC1CCCCC1)N(C(=O)Cc1cccs1)c1ccc2c(c1)OCO2 (stereo not drawn)
    3%, 2, -18, -2.1, -5, 11, .
> CCNc1nc(SCCOc2ccc(Cl)cc2Cl)nc(N(C)C)n1
    -1%, 13, -6, -3.4, -6, 8, 3.4%
> C=CCC1NS(=O)(=O)OCC1NC(=O)OCC(Cl)(Cl)Cl (stereo not drawn)
    19%, 4, -9, -2.6, 5, 6, 0.1%
> Oc1ccc(N=C/C=C/c2cccc(Br)c2)cc1-c1nc2ccccc2s1
    ?, -19, 2, -4.1, 10, -24, 3.1%
> COc1cc2c(cc1C1NC(=S)NC(C)=C1C(=O)N(C)C)CCCC2 (stereo not drawn)
    1%, 8, -4, -0.4, 0, -3, 12%
> Cc1ccc(CNC(=O)CSc2nc(=O)n3cccc(C)c3n2)cc1
    ., -2, -32, -4.6, -4, 4, 4.5%
> CCc1ccc(OCC(=O)Nc2ccc3c(c2)COC3=O)cc1
    19%, -2, 7, -2.4, 7, 0, -1.1%
> Cc1ccc(-n2c3c(cc(C(=O)NCc4ccco4)c2=O)C(=O)CC(C)(C)C3)cc1
    ?, -9, 1, -2.9, 25, -3, 1.0%
> O=C(CCCN1C(=O)/C(=C/c2ccccc2)SC1=S)Nc1ccc(O)cc1
    12%, -9, -2, 0.5, -8, -2, 0.4%
> CCOC(=O)N1CCN(C(=O)C2COc3ccccc3O2)CC1 (stereo not drawn)
    10%, -2, 5, -0.5, 4, -6, -0.8%
> CCOc1ccccc1-n1c(SCC(=O)NC)nnc1-c1ccco1
    13%, -1, -3, -0.1, -11, -13, -4.6%[38.3 µM]
> Cc1cc(C)cc(N(CCC#N)C(=O)CSc2n[nH]c(N)n2)c1
    ., 3, 1, -2.4, -4, 0, -2.1%
> CCOc1ccccc1OCCOCCN1CCN(Cc2ccccc2)CC1
    79µM*, -3, -24, 0.2, -11, 0, 0.3%
> O=C(NC1CCCCCC1)c1ccc(CN2CCOCC2)cc1
    6%, 10, -4, -4.1, -25, 1, 0.6%
> CCN(CC)C(=O)COc1ccc2oc(C)c(C(=O)OC)c2c1
    15%, -1, -5, -2.5, -5, -3, 0.0%
> COc1ccc(-c2csc3ncnc(N4CCN(S(=O)(=O)c5ccc(C(C)=O)cc5)CC4)c23)cc1
    ., -10, -13, -3.6, -19, -25, -2.2%
> COc1ccc(CNC(=O)C(=O)NCC(c2ccco2)N2CCOCC2)cc1 (stereo not drawn)
    0%, -2, -11, 1.6, -2, -3, 2.3%
> CCc1cc(=O)oc2cc(C)cc(OCC(=O)NCc3ccncc3)c12
    8%, 0, 3, -0.6, 9, -6, 2.0%
> Cc1[nH]n(-c2ccc(Cl)c(Cl)c2)c(=O)c1CCO
    10%, -8, -11, 2.0, 8, -5, -2.5%
> CCOC(=O)N/N=C(\C)c1ccc(C)c([N+](=O)[O-])c1
    7%, -6, 2, -4.0, 7, -5, 4.3%
> CCCCCCC1CCC(C(=O)Nn2c(C)nc3ccccc3c2=O)CC1 (stereo not drawn)
    3%, 1, 1, -1.1, -9, 7, 15%[38.3 µM]
> COc1ccc2cc(CN(CCO)C(=O)c3ccc(Br)cc3)c(=O)[nH]c2c1
    29%, -4, -1, 0.9, 6, 1, 1.7%
> O=C(O)c1ccc2c(=O)n3c(nc2c1)/C(=C/c1ccc(C(F)(F)F)cc1)CC3
    9%, 2, 1, -0.8, 5, ?, -1.1%
> O=C(O)COc1ccc2c3c(c(=O)oc2c1)CCC3
    16%, -2, -20, -5.0, 11, 0, 3.3%
> Cc1cc(C)c(OCC(=O)OC(C)C(=O)NCc2ccccc2)c(C)c1 (stereo not drawn)
    ., 5, -17, -4.5, -16, -1, -2.1%
> COc1ccc(NC(=S)c2ccc3ccccc3n2)cc1
    22µM*, ?, -7, -3.6, 25, ?, 0.2%
> CCn1c(C)c(C)c2cc(C(=O)NCCc3ccco3)ccc21
    -6%, -24, -51, -0.9, -7, -13, -0.8%
> CC(C)(C)NC(=O)C(=O)NNC(=O)COc1ccc(Br)cc1
    11%, -3, 8, -0.2, 6, -16, -0.5%
> CC(NC(=O)c1cc2cc(Cl)ccc2oc1=N)c1ccccc1 (stereo not drawn)
    ?, 5, -27, 0.6, -9, -3, 2.0%

Single values from the entries so far:
Oc1ccc(N=C/C=C/c2cccc(Br)c2)cc1-c1nc2ccccc2s1 in TRPV1 potentiator shows 10
COc1ccc2cc(CN(CCO)C(=O)c3ccc(Br)cc3)c(=O)[nH]c2c1 in CtBP-E1A blk shows 1
